Menin MLL FP FL – inhibitors of human menin-MLL interaction, wild-type MLL peptide; Fluorescence polarization, fluorescein-MLL peptide displacement from menin; FP activity change, % at 61.4 µM; 290,000 tested, under 10 active; AID 1766; inconclusive = falling polarisation curve, or a change in total fluorescence; inactive = total fluorescence flat and polarisation flat or rising; no compound was filed as active; the % refers to the polarisation; negative = inhibition;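 also: % of control where 0% means no effect; inhibitors lower the polarisation; unlabelled MLL peptide was the positive control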
PINK1 modulator – modulators of PINK1 expression; Potency, µM (highest dose often 76.6 µM), inactives show at the highest dose activation (PINK1 increase), usual class: activators; PINK1 immunofluorescence, high-content cytometry, 24 h; AID 624263; actives 0.2% (n = 410,000); active = well fitted activation curve with a large enough effect; inconclusive = small, poorly fitted or top-dose-only effect; inactive = flat fitted curve, though single readings scatter; cell line not stated here;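 also: potency is read from the fitted curve at half-maximal effect; % of control where 0% means no effect; nearly all actives have a fitted effect of over 65% in size; a mitochondrial uncoupler was the plate control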
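Decision-based qHTS: stable cells, 24 h exposure to five compound concentrations, CCCP as control. Fixed cells stained for PINK1 plus nuclear, mitochondrial and cell markers, cytometer read.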
TRPV1 potentiator – human TRPV1 potentiation; TRPV1-expressing cells, Fluo-8 calcium influx, capsaicin EC20 potentiation; host cell line not named in the record; control for the full effect not named in the record; potentiation, % at 8.33 µM; actives 0.02% (n = 320,000); active means potentiation above 80%; inconclusive means 30% to 80%; inactive means below 30%; also: 0% is about no effect
Target sequence (Q8NER1 whole entry, looked up): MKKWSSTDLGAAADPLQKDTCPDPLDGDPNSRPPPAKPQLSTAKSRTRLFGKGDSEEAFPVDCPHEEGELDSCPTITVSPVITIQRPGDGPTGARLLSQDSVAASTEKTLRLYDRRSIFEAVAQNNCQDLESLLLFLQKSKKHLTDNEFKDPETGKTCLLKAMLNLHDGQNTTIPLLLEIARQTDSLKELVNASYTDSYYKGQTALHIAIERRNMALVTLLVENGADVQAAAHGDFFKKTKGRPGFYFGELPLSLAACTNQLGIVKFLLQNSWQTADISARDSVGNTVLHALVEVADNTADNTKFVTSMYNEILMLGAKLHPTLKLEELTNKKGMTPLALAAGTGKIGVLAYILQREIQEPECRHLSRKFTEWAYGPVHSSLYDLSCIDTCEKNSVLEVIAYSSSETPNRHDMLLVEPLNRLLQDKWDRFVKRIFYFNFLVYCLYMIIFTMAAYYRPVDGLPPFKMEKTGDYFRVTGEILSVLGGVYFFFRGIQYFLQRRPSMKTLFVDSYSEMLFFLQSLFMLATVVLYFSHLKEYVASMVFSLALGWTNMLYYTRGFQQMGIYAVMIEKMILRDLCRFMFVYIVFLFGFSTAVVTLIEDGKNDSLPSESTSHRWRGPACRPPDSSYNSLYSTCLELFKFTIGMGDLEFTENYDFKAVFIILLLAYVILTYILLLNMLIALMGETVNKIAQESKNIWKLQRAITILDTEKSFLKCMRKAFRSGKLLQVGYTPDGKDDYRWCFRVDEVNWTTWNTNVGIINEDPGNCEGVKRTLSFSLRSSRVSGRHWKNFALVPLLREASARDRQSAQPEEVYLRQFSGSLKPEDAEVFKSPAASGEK
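TRPV1-expressing cells were cultured overnight at 35.5C and loaded with Fluo-8 calcium dye for 40 to 90 min at room temperature. After a 10 s baseline, compound was added and calcium influx was read kinetically for 3 min (ex 480/em 520 nm).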
Sfp inh – blocks B. subtilis Sfp PPTase activity | Q9F4F7 | Biochemical Sfp PPTase activity, qHTS | Potency, µM, for inactives: max response, negative = inhibition, usual class: inhibitors | actives 3.5% (n = 310,000) | AID 1490; active = well fitted inhibition curve with a large enough effect; inconclusive = small, poorly fitted or top-dose-only effect, or another doubt; inactive = no such curve, though single readings can be large or run the other way;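 also: the enzyme is Sfp with the accession as filed and its product quenches rhodamine fluorescence; potency is read from the fitted curve at half-maximal effect; 0% = enzyme reaction without inhibitor and -100% = no enzyme wells; top concentration of the series not given in the record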
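Compounds were incubated with enzyme (final 15 nM) for 15 min at room temperature before substrate addition started the reaction. Fluorescence at 525 nm excitation, 598 nm emission was recorded immediately and after 30 minutes.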
ClpP mod – qHTS Assay for Activators of ClpP; ATP-dependent Clp protease proteolytic subunit (Bacillus subtilis (strain 168)), P80244; purified B. subtilis ClpP, FRET peptide cleavage, 20 min; Potency, µM (titrated, usually from 57.5 µM), without a hit: top-dose activity change, negative = active; actives 1.9% (n = 340,000); active = well fitted falling curve with a large enough effect; inconclusive = small, poorly fitted or top-dose-only effect; inactive = no such curve, though single readings can be large or run the other way; also: potency is read from the fitted curve at half-maximal effect; the source files actives as falling curves though it sought activators and does not explain the sign; nearly all actives have a fitted effect of over 65% in size; many hits overshoot -100%
Target sequence (P80244 whole entry, looked up): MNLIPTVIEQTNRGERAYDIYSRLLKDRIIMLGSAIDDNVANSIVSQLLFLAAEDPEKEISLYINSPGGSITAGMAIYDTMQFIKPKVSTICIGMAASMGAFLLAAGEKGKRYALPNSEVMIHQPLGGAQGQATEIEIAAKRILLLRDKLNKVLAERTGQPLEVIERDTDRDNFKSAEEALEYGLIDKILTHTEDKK
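Buffer: 100 mM Tris/HCl pH8, 100 mM KCl, 0.05% low protease BSA, 2.5% glycerol, 0.01% Tween-20. ClpP 10 microg/mL final; 20 min RT; delta FRET normalized to ADEP and DMSO controls.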
TRPML1 ag – agonists of human TRPML1 channel. TRPML1-expressing cells, Ca2+ dye fluorescence, FDSS; host cell line not named in the record; reference of the full effect not given here. actives 0.12% (n = 410,000). activation, % (concentration not given with the values). Q9GZU1; in the data active = activation above about 50%; inconclusive = about 30% to 50%; inactive = below about 30%; also: 0% is about no effect; the text of the record puts the active cut at 80%
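Calcium fluorescence on an FDSS kinetic reader gave the read-out. Tet-induced TRPML1-DL cells were plated overnight, dye-loaded (Ca8 with quencher, 45-90 min, room temperature, dark), then read 110 s after compound addition, and again 110 s after 4uM final 54-4 (EC80).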
TRPML1 blocker – blocks the human TRPML1 channel. activity change, negative = inhibition, % (test concentration not listed). TRPML1-inducible cells, Ca2+ dye fluorescence, FDSS; stronger effect = lower value; inhibition of EC80 agonist-evoked calcium signal. actives 0.02% (n = 390,000). AID 624415. Q9GZU1; in the data active means activity change below about -50%; inconclusive means about -30% to -50%; inactive means above about -30%;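 also: stimulus is agonist 54-4 at its EC80 concentration; % is scaled to controls: 0 for no effect and ±100 for the full control effect; compound concentration not given in the record; the text of the record puts the active cut at -80%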
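TRPML1-DL cells, Tet-induced overnight (~16 h, 37 °C) at 1,500 cells/well, were loaded with Ca8 no-wash dye plus quencher for 45-90 min at room temperature. Compounds were pinned during FDSS kinetic reading; agonist 54-4 at EC80 (4 uM final) then added.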
Active calls of the source: *; ? = inconclusive; nt = no result given; [ ] = another dose, or the depositor's remark.

no.	Compound	Menin MLL FP FL	PINK1 modulator	TRPV1 potentiator	Sfp inh
1	COc1ccccc1CCC(=O)Oc1ccc(C#N)cc1OC	nt	0.0%	8	-9%
2	Cc1ccc(NC(=O)CSc2nnc(CNC(=O)c3ccccc3F)o2)cc1Cl	nt	0.0%	18	12%
3	O=C(c1noc2c1CCCCC2)N1CCN(c2cccc(C(F)(F)F)c2)CC1	nt	10%	nt	nt
4	COc1ccccc1NC(=O)[C@@H]1CCCN1S(=O)(=O)c1ccc(Cl)cc1	nt	0.3%	nt	nt
5	CCc1ccc(C(=O)CN2C(=O)NC(C)(CCc3ccccc3)C2=O)cc1 (configuration not stated)	6.3	9.4%	-2	11%
6	C=CCn1c(N)c(C(=O)Nc2cccc(C)c2)c2nc3ccccc3nc21	-0.9	6.6%	-4	3%
7	CC1(C(=O)Nc2cnc3ccccc3c2)CCN1Cc1ccc2ccccc2c1 (configuration not stated)	nt	5.3%	nt	nt
8	CS(=O)(=O)N1CCC2(CCN(c3ccncc3)CC2)CC1	4.9	0.4%	nt	14%
9	COc1ccccc1CNC(=S)NCc1ccc(F)cc1	3.7	0.1%	-9	13%
10	O=C(C[C@H]1C[C@@H]2c3cc(NS(=O)(=O)c4ccccc4)ccc3O[C@@H]2[C@H](CO)O1)N1CCOCC1	nt	1.9%	nt	nt
11	COc1cc(C)c(C#N)c(OC)n1	2.6	0.4%	2	11%
12	Cc1ccc(C)c2[nH]c(=O)c(CCNC(=O)c3ccco3)cc12	-3.6	-0.1%	-5	6%
13	COc1cc(OC)cc(C(=O)NCCC(=O)NCCc2ccc(OC)c(OC)c2)c1	2.9	3.0%	7	12%
14	O=C(COc1cc2oc(=O)c3c(c2cc1Cl)CCCC3)N1C[C@H]2C[C@@H](C1)c1cccc(=O)n1C2	3.3	-0.8%	4	4%
15	COc1ccc(C[C@H]2CN3C(=NC[C@@H]3Cc3ccc(O)cc3)N2CCNC(=O)c2ccc(C)c(Br)c2)cc1	0.7	-1.1%	16	-19%

no.	ClpP mod	TRPML1 ag	TRPML1 blocker
1	-4.3%	3.1	15
2	-5.0%	0.6	0
3	-6.7%	2.6	-1
4	?	0.1	5
5	0.7%	3.6	-28
6	?	0.4	-10
7	?	0.6	nt
8	nt	nt	nt
9	-1.2%	1.7	-2
10	-0.7%	-0.5	18
11	-2.0%	-0.8	59
12	-11%	2.2	10
13	-1.3%	-0.4	-9
14	4.7%	nt	nt
15	-0.7%	-0.4	28

Reprinted: compounds 1–10
no.	Compound	Menin MLL FP FL	PINK1 modulator	TRPV1 potentiator	Sfp inh
1	COc1ccccc1CCC(=O)Oc1ccc(C#N)cc1OC	nt	0.0%	8	-9%
2	Cc1ccc(NC(=O)CSc2nnc(CNC(=O)c3ccccc3F)o2)cc1Cl	nt	0.0%	18	12%
3	O=C(c1noc2c1CCCCC2)N1CCN(c2cccc(C(F)(F)F)c2)CC1	nt	10%	nt	nt
4	COc1ccccc1NC(=O)[C@@H]1CCCN1S(=O)(=O)c1ccc(Cl)cc1	nt	0.3%	nt	nt
5	CCc1ccc(C(=O)CN2C(=O)NC(C)(CCc3ccccc3)C2=O)cc1 (configuration not stated)	6.3	9.4%	-2	11%
6	C=CCn1c(N)c(C(=O)Nc2cccc(C)c2)c2nc3ccccc3nc21	-0.9	6.6%	-4	3%
7	CC1(C(=O)Nc2cnc3ccccc3c2)CCN1Cc1ccc2ccccc2c1 (configuration not stated)	nt	5.3%	nt	nt
8	CS(=O)(=O)N1CCC2(CCN(c3ccncc3)CC2)CC1	4.9	0.4%	nt	14%
9	COc1ccccc1CNC(=S)NCc1ccc(F)cc1	3.7	0.1%	-9	13%
10	O=C(C[C@H]1C[C@@H]2c3cc(NS(=O)(=O)c4ccccc4)ccc3O[C@@H]2[C@H](CO)O1)N1CCOCC1	nt	1.9%	nt	nt

no.	ClpP mod	TRPML1 ag	TRPML1 blocker
1	-4.3%	3.1	15
2	-5.0%	0.6	0
3	-6.7%	2.6	-1
4	?	0.1	5
5	0.7%	3.6	-28
6	?	0.4	-10
7	?	0.6	nt
8	nt	nt	nt
9	-1.2%	1.7	-2
10	-0.7%	-0.5	18

(continued)
no.	Compound	Menin MLL FP FL	PINK1 modulator	TRPV1 potentiator	Sfp inh
16	Nc1nc(N)c2cc([N+](=O)[O-])ccc2n1	nt	1.8%	nt	nt
17	CCCCCCCCc1c(O)nc(-n2[nH]c(C)c(CCO)c2=O)[nH]c1=O	-4.5	-1.5%	-5	7%
18	Cc1nnc(NC(=O)C2CCN(S(=O)(=O)c3ccc(F)c(F)c3)CC2)o1	nt	-1.3%	nt	nt
19	CC12/C(=N/O)C3C4CC5C3/C(=N/O)C1C5C42 (configuration not stated)	3.5	0.1%[38.3 µM]	-1	4%
20	COc1ccc(S(N)(=O)=O)cc1C(=O)NNC(=O)C1COc2ccccc2O1 (configuration not stated)	nt	0.1%	nt	nt
21	CCCc1nnc(NC(=O)Cn2c(=O)oc3ccccc32)s1	2.2	0.4%	-4	?
22	CN(C)NC1CCS(=O)(=O)C1 (configuration not stated)	1.1	12%[38.3 µM]	6	-19%
23	Cc1nn(CC(=O)Nc2ccc(N3CCOCC3)cc2)c(C)c1Br	-1.5	4.3%	24	-5%
24	Cc1ccc(-n2cc(C(=O)O)c(=O)cc2C)c(C)c1	4.9	-0.3%	-21	-14%
25	Cc1ccc(C)c(NC(=O)C2=CCN(S(=O)(=O)c3ccc(F)cc3)CC2)c1	0.0	2.2%	-27	-7%
26	CCOc1ccc(CCNC(=O)COC(=O)COc2ccc(C(=O)CC)cc2)cc1OCC	nt	-1.3%	0	nt
27	CC(=O)Nc1ccc(-c2noc(-c3csc([C@@H]4C[C@H](O)[C@@H](CO)O4)n3)n2)cc1	nt	0.7%	nt	nt
28	Cc1ccc(Cc2c(-c3ccccc3)nc3c(C)cc(Br)cn23)cc1	nt	3.7%	nt	nt
29	O=C(Nc1ccc2oc(-c3ccccc3)nc2c1)C1CCCO1 (configuration not stated)	0.9	-1.2%	-2	19%
30	O=C(c1ccco1)N1CCC2(CC1)CN(c1ccccn1)C2	-1.4	-0.2%	nt	0%

no.	ClpP mod	TRPML1 ag	TRPML1 blocker
16	0.1%	0.3	-5
17	nt	-0.1	2
18	-1.0%	0.0	-15
19	-17%	1.1	-1
20	-2.4%	-0.4	0
21	1.6%	-0.3	2
22	-0.3%	0.2	8
23	1.0%	1.3	70
24	nt	0.2	12
25	0.4%	-0.3	16
26	1.0%	1.3	1
27	-4.7%	-0.7	nt
28	-9.4%	-0.3	nt
29	-1.2%	0.6	1
30	nt	nt	nt

The list continues.
no.	Compound	Menin MLL FP FL	PINK1 modulator	TRPV1 potentiator	Sfp inh
31	Cc1ccc(N2CC(C(=O)NCc3nnnn3-c3ccc(C)c(C)c3)CC2=O)cc1C (configuration not stated)	nt	0.1%	nt	nt
32	CCOC(=O)N1CCN(C(=O)COc2ccc(Cl)cc2C)CC1	-3.2	-0.8%	-1	13%
33	CCn1c(Cc2cccs2)nnc1SCC(=O)c1ccc(C)cc1	-1.9	1.2%[38.3 µM]	3	2%
34	CCN(Cc1ccccc1)C(=O)CSc1nc(C)cc(C)c1C#N	2.3	-0.8%	-4	-4%
35	Cc1cc(OC(C)C(=O)NCC(O)c2ccccc2)c2c(C)cc(=O)oc2c1 (configuration not stated)	-8.7	-0.2%	-1	13%
36	CCOC(=O)C1=C(CS(=O)(=O)c2ccc(F)cc2)NC(=O)NC1c1cc(OC)c(O)c(OC)c1 (configuration not stated)	-0.9	0.4%	1	6%
37	Cc1ccccc1NC1=C(C(=O)c2ccccc2)N(C)S(=O)(=O)c2ccccc21	12	-2.4%	-6	2%
38	COc1ccc(Br)cc1C(=O)Nc1nc2ccc(F)cc2s1	nt	-0.1%	nt	nt
39	CNC(=O)C1CC(=O)N(c2ccc(OCC(=O)Nc3ccc(OC)cc3)cc2)C1 (configuration not stated)	nt	2.9%	10	nt
40	CCCCN(C)C(=O)CCCCn1c(=O)[nH]c2cc(OCC)c(OCC)cc2c1=O	4.5	1.0%	-5	11%
41	C=CCn1c(SCC(=O)NC2CCCC2)nnc1-c1ccncc1	nt	-1.6%	6	2%
42	CCOC(=O)c1sc(-c2ccccc2)cc1NC(=O)c1ccc(S(=O)(=O)N(CCOC)CCOC)cc1	2.8	0.6%	12	9%
43	CCCCCC(=O)Nc1ccc(S(=O)(=O)Nc2ccc(Cl)nn2)cc1	4.9	-0.9%	-6	1%
44	COc1ccccc1C(=O)COC(=O)c1ccc(Cl)nc1	nt	0.2%	6	nt
45	CCc1ccc(NC(=O)Cn2c(=O)c(-c3ccccc3NC(C)=O)nc3ccccc32)cc1	nt	1.2%	nt	nt
46	Clc1ccc(-c2cc3ccccc3nc2N2CCCC2)cc1	1.4	20%	12	-11%
47	NC(=O)CC(NC(=O)c1ccccc1)c1ccc(NCc2ccc(F)cc2)c([N+](=O)[O-])c1 (configuration not stated)	-2.3	3.7%	-11	-20%

no.	ClpP mod	TRPML1 ag	TRPML1 blocker
31	0.5%	-0.2	1
32	-0.5%	-0.5	0
33	-0.4%	0.7	11
34	-2.3%	0.6	-17
35	4.0%	-0.4	-7
36	0.9%	0.1	7
37	1.7%	5.8	9
38	12%	1.1	-2
39	2.0%	-0.7	-3
40	35µM*	1.3	8
41	25µM*	0.1	14
42	-10%	0.8	2
43	nt	2.3	-5
44	-3.1%	0.0	-7
45	-8.1%	1.1	22
46	?	0.2	23
47	-0.2%	-0.5	38

High-throughput results (PubChem BioAssay)
